# GIRK2 act: activators of human GIRK2 potassium channels; HEK293-GIRK2 thallium flux, Thallos fluorescence; calls only for hits at 25 µM; 0.05% of 63,000 active; AID 1259325;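 active = among the strongest 0.2% of first-round signals and kept after retests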;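 also: first round at about 10 µM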
# Target sequence (P48051 whole entry, looked up): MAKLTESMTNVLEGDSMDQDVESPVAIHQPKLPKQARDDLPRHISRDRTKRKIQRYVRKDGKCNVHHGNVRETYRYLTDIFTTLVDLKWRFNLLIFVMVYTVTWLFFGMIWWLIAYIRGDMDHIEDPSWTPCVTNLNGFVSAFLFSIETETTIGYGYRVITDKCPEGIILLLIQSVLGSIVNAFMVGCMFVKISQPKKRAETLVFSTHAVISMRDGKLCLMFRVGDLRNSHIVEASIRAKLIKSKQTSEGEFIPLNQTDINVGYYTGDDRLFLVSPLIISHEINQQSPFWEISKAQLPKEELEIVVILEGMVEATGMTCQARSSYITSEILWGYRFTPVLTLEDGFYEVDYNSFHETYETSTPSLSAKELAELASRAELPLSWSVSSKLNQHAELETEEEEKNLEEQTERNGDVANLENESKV
# Calls only; i = inactive; + = active, no number. An excerpt. The share of hits here may be higher or lower than overall.
compound,GIRK2 act
CC1CCCC(C)N1CC(O)COc1ccc(C23CC4CC(CC(C4)C2)C3)cc1 (centres undefined),i
Cn1cccc1C(CNC(=O)C1CC1)N1CCCC1 (centres undefined),i
COc1cccc(CNC(=O)Cn2c(=O)nc(-c3ccccc3F)c3cc(Cl)ccc32)c1,i
COCCN(Cc1ccsc1)C(=O)CCc1ccccc1,i
O=C(NCC1(O)CCOc2ccccc21)Nc1ccc2c(c1)OCO2 (centres undefined),i
COc1cccc(C(=O)Nc2cc(C)nn2-c2nc3ccc(OC)cc3s2)c1,i
O=C(Oc1ccc2c(=O)c(-c3ccccc3)c(C(F)(F)F)oc2c1)c1ccco1,i
O=C(Nc1ccccc1F)C1COCC(=O)N1Cc1cccs1 (centres undefined),i
Cn1nnn(-c2ccc(NC(=O)c3c(F)cccc3Cl)cc2)c1=O,i
Fc1ccc(-c2n[nH]c(=S)s2)cc1,+
O=C1OC(O)C(c2cc3ccccc3s2)C1Br (centres undefined),i
Cc1cccc(NC(=O)Cn2ccn(-c3ccc(C)c(C)c3)c(=O)c2=O)c1,i
O=C(c1nnn(-c2ccc(Cl)cc2)n1)N(CCO)Cc1ccccc1,i
O=S(=O)(CCOc1ccccc1)N1CCN(CCc2ccccc2)CC1,i
O=C(CC(c1ccccc1)c1ccccc1)NCCOc1ccc2c(c1)OCO2,i
COc1ccc(Cl)cc1NC(=O)NCCc1csc(-c2ccc(F)cc2)n1,i
Cn1nc(CNS(=O)(=O)c2cc(F)ccc2F)cc1-c1ccco1,i
COC(=O)C1=C(CS(=O)(=O)c2ccc(C(C)(C)C)cc2)NC(=O)NC1c1ccccc1 (centres undefined),i
COc1nn(C)cc1C(=O)Nc1sccc1-c1nc2ccccc2s1,i
CCC(CO)Nc1nc(Nc2ccc(C)cc2)c2n[nH]nc2n1 (centres undefined),i
CC1(C)Cc2cccc(OCC(=O)NCc3cnn4ccccc34)c2O1,i
Cc1ccc(S(=O)(=O)N2CCCC(c3nnc(Cc4ccc(F)cc4)o3)C2)c(C)c1 (centres undefined),i
O=C(c1ccccc1Cl)N1CCN(c2cc(-c3ccccc3)ncn2)CC1,i
CCN(CC)CCNC(=O)c1cc2cc(Cl)ccc2oc1=O,i
Cc1onc(-c2ccccc2Cl)c1C(=O)NCCc1nc(-c2cccs2)cn1C,i
COc1cccc(CSc2nc(C)c(CC(=O)Nc3cccc(F)c3)c(=O)[nH]2)c1,i
COC(=O)c1c(NC(=O)CSc2nnnn2-c2ccccc2OC)sc2c1CCC2,i
CSCCC(C)(O)CNC(=O)C1CCCC1 (centres undefined),i
O=C1CCS(=O)(=O)N1c1ccc(S(=O)(=O)Nc2ccccc2F)cc1,i
C=C(C)C(=O)O[C@H]1C[C@@](C)(O)C(=O)CC(O)C(C)=C[C@H]2OC(=O)C(=C)[C@H]12 (some centres undefined),i
Cc1ccc(C)c(OCC(=O)Nc2nc(-c3ccc4c(c3)NC(=O)C(C)O4)cs2)c1 (centres undefined),i
COCCNC(=O)Cn1cnc2sc(-c3nc(-c4ccccc4Cl)no3)c(C)c2c1=O,i
CS(=O)(=O)c1ccc2nc(N(Cc3cccnc3)C(=O)c3cccc(C(F)(F)F)c3)sc2c1,i
O=C(CCS(=O)(=O)Cc1ccccc1)Nc1ccc(F)cc1F,i
CC(C)c1ccc(N2C(=O)C3N=NN(Cc4nc(-c5ccccc5)no4)C3C2=O)cc1 (centres undefined),i
Cc1noc(C)c1S(=O)(=O)N1CC(Oc2nc3c(F)cccc3s2)C1,i
COc1ccc(-n2nnc(C(=O)Nc3cccc(Cl)c3C)c2C)cc1,i
CCc1cccc(NC(=O)Cn2c(-c3ccc(C)cc3)ncc(C#N)c2=O)c1,i
CC(C(=O)Nc1ccc(S(N)(=O)=O)cc1)n1nc(-n2cccn2)ccc1=O (centres undefined),i
COc1ccc(NC(=O)c2csc(Nc3ccc(OC(F)F)cc3)n2)cc1OC,i
C=CCn1c(=O)[nH]c2cc(C(=O)N3CCN(c4cccc(Cl)c4)CC3)ccc2c1=O,i
Cc1ccc(S(=O)(=O)Nc2ccc3c(c2)N(C(=O)c2ccccc2)CCC3)c(C)c1,i
O=C(NCc1nc(-c2ccccc2)no1)c1csc(-n2cccc2)n1,i
CCCn1c(=O)c2cc(F)ccc2n2c(SCC(=O)N3CCN(c4ccccc4F)CC3)nnc12,i
Cc1cc(C)c(S(=O)(=O)N2CCN(C)CC2)cc1Br,i
COc1ccccc1C1(CNC(=O)C2CC=CCC2)CCOCC1 (centres undefined),i
COc1c(C)cc(S(=O)(=O)NCC(c2ccsc2)N2CCN(C)CC2)cc1C (centres undefined),i
CCC(C(=O)NC1CCCC(OC(=O)Nc2ccc(F)cc2)C1)c1ccccc1 (centres undefined),i
O=C(NCc1cccs1)Nc1ccc2c(c1)CCCN2C(=O)c1cccs1,i
COc1ccc(Cl)cc1C(=O)NCc1nc(C)no1,i
O=C(O)COc1ccccc1/C=C1/SC(=S)N(c2cccnc2)C1=O,i
CCCCCn1c(SCc2ccncc2)nc2cc(C(=O)N3CCOCC3)ccc2c1=O,i
Cc1noc(CNC(=O)c2cc(Cl)cc(Cl)c2)n1,i
CC(=O)c1cccc(NC(=O)c2ccc(S(=O)(=O)N(C)Cc3ccccc3)cc2)c1,i
O=C(c1ccccc1)N1CCC(Cn2ccnc2)CC1,i
O=C(NCCC(O)c1ccccc1)C(=O)NCc1cccs1 (centres undefined),i
O=C(NCCC1=CCCCC1)C(=O)Nc1ccc(N2CCCS2(=O)=O)cc1,i
Cc1nn(C)cc1C(=O)NCCc1c[nH]c2ccccc12,i
CCc1ccccc1NC(=O)Cn1cc(C(=O)N2CCC(C)CC2)c(=O)c2ccc(C)nc21,i
Cc1noc(-c2cccn(C(C)C(=O)NCc3cccs3)c2=O)n1 (centres undefined),i

# (continued)
compound,GIRK2 act
O=S(=O)(NCCCN1CCN(c2ccccc2)CC1)c1ccc(Cl)s1,i
CC(C)(C)NC(=O)CSc1nc(C(C)(C)C)cc(C(F)(F)F)c1C#N,i
COC(=O)c1[nH]c(C)c(C(O)=C2C(=O)C(=O)N(CCCN(C)C)C2c2cccs2)c1C (centres undefined),i
COc1cccc(NC(=O)Cn2c(-c3ccncc3)nc3ccccc32)c1,i
Cc1nc(OCC(=O)NCCNc2cc(-n3cnc(C)c3C)ncn2)cc(-n2cccn2)n1,i
CC(C)C(=O)Nc1ccc(S(=O)(=O)NCCCN2CCN(c3ccccc3)CC2)cc1,i
O=C(Nc1nc2c(s1)CN(C(=O)c1ccc(=O)[nH]n1)CC2)NC1CCCC1,i
COc1ccc(CNC(=O)C(=O)NCCC2CCCCN2S(=O)(=O)c2ccc(F)c(C)c2)cc1 (centres undefined),i
O=C(CCS(=O)(=O)c1ccccc1)N1CCC(COCc2ccc(F)cc2)CC1,i
O=C(CCCn1cnc(-c2ccc(F)cc2)cc1=O)Nc1nccs1,i
COc1ccc(-c2nnc3c4cnn(-c5ccc(F)cc5)c4ncn23)cc1OC,i
OC(COCC1CC2CCC1C2)CN1CCN(c2ccccc2)CC1 (centres undefined),i
NC(=O)c1ccccc1OCC#CCNC(=O)C1(c2cccs2)CCCC1,i
COc1ccc(C2CC3C4NN=C(SCC(=O)Nc5cccc(C(F)(F)F)c5)N4C=CN3N2)cc1 (centres undefined),i
CCCS(=O)(=O)N1CCC(c2nnc(CC)s2)CC1,i
N#Cc1ccccc1NC(=O)c1cccc(S(=O)(=O)N2CCOCC2)c1,i
Cc1[nH]c(=O)[nH]c(=O)c1CCC(=O)Nc1ccc(OCc2ccc(Cl)cc2)cc1,i
CCOC(=O)c1ccc(NC(=O)Cn2ccn3nc(-c4ccc(OC)c(OC)c4)cc3c2=O)cc1,i
CCOC(=O)CSc1nc2cc(OC)c(OC)cc2c2nc(-c3ccc([N+](=O)[O-])cc3)nn12,i
Cn1cccc1CN(Cc1cccs1)C(=O)c1ccc2nsnc2c1,i

# Not a retest: entries from further up.
compound,GIRK2 act
N#Cc1ccccc1NC(=O)c1cccc(S(=O)(=O)N2CCOCC2)c1,i
Cc1[nH]c(=O)[nH]c(=O)c1CCC(=O)Nc1ccc(OCc2ccc(Cl)cc2)cc1,i
CCOC(=O)c1ccc(NC(=O)Cn2ccn3nc(-c4ccc(OC)c(OC)c4)cc3c2=O)cc1,i
CCOC(=O)CSc1nc2cc(OC)c(OC)cc2c2nc(-c3ccc([N+](=O)[O-])cc3)nn12,i
Cn1cccc1CN(Cc1cccs1)C(=O)c1ccc2nsnc2c1,i

# Next part.
compound,GIRK2 act
O=C(/C=C/c1ccccc1Cl)NCCC(O)c1ccc2c(c1)OCO2 (centres undefined),i
COC(=O)Cn1c(N2CCCC2)nc2c1c(=O)n(C)c(=O)n2C,i
COc1cccc(COc2cn(C)c(C(=O)N3CCN(c4ccccc4)CC3)cc2=O)c1,i
CC(C)Cn1c(=O)[nH]c2c(C(=O)N3CCN(c4ccccc4Cl)CC3)snc2c1=O,i
CCN1C(=O)Cc2cc(NC(=O)Cc3cccc(C)c3)ccc21,i
O=C(/C=C/c1ccccc1)N1CCN(CC(O)c2cccs2)CC1 (centres undefined),i
CC1=CC(O)C(C)(C2(C)CCC(O)C23CO3)C(O)C1 (centres undefined),i
COc1ccc2ncn(-c3cc(O[C@H](C)c4ccccc4C(F)(F)F)c(C(N)=O)s3)c2c1,i
O=C(c1ccc(Br)o1)N1CCCC(COCc2ccccc2)C1 (centres undefined),i
COCC(=O)N1CCN(Cc2nc3ccccc3n2C)CC1,i
O=C(NCCC(O)C1CC1)NCc1cccc2ccccc12 (centres undefined),i
O=C(NCC1CCN(C2CCCC2)CC1)C(=O)Nc1ccc2c(c1)OCO2,i
C[C@H](CCCO)[C@H]1CC[C@H]2[C@@H]3[C@H](O)C[C@H]4CC(=O)CC[C@]4(C)[C@H]3C[C@H](O)[C@]12C,i
CN(CC(=O)Nc1ccc2c(c1)OCO2)c1nc2c(F)cccc2s1,i
COc1ccccc1/C=C1\Oc2c(ccc3c2CN(CC2CCCO2)CO3)C1=O (centres undefined),i
Cn1c(C(F)(F)F)nn(CCNC(=O)CSc2ccc(F)cc2)c1=O,i
CCC(C)n1c(=O)c2ccccc2n(Cc2nc(-c3ccc(C(F)(F)F)cc3)no2)c1=O (centres undefined),i
O=C(NCC1CCN(S(=O)(=O)C2CC2)CC1)c1ccc(OC(F)(F)F)cc1,i
COc1ccc(-n2nc(-c3nc(-c4ccc(OC)c(OC)c4)no3)c3ccccc3c2=O)cc1,i
COc1nn(C)cc1C(=O)NCCc1nc(-c2ccco2)cn1C,i

# Random excerpt: 2 entries already listed, in no set order.
compound,GIRK2 act
COc1ccc2ncn(-c3cc(O[C@H](C)c4ccccc4C(F)(F)F)c(C(N)=O)s3)c2c1,i
COc1nn(C)cc1C(=O)NCCc1nc(-c2ccco2)cn1C,i

# More structures.
compound,GIRK2 act
CCOC(=O)c1ccc(NC(=O)Cn2c(C)cc(C)c(-c3nc(-c4ccccc4)no3)c2=O)cc1,i
O=C(CSc1ccc(F)cc1)N1CC(c2nc3ccccc3[nH]2)C1,i
CCOc1ccccc1NC(=O)N1CCC(Oc2ccccn2)CC1,i
CCOc1ccc(CNC(=O)c2ccc(Oc3nccnc3N3CCOCC3)cc2)cc1OCC,i
COc1ccc2c(c1)c(CC(=O)NOCc1ccc([N+](=O)[O-])cc1)c(C)n2C(=O)c1ccc(Cl)cc1,i
O=C(/C=C/c1ccsc1)NCC1CCN(c2cnccn2)CC1,i
Cc1cc(C)n(-c2ccc(C(=O)NCCCn3ncccc3=O)nn2)n1,i
CS(=O)(=O)N1CCc2nc(NC(=O)c3cc(-c4ccco4)on3)sc2C1,i
CN(C)c1cccc(C(=O)N2CCC(Oc3ccc(Cl)cn3)CC2)c1,i
COc1ccc(S(=O)(=O)NCCC(=O)O)cc1N(C)S(C)(=O)=O,i
Cc1ccc(NC(=O)Nc2cnc(N3CCN(C)CC3)nc2)cc1,i
CCOc1ccc(NC(=O)N(CCOC)Cc2ccoc2)cc1,i
Cc1cc(C)n(CC(=O)NCc2ccco2)c(=O)c1C#N,i
COc1ccc(S(=O)(=O)N2CCOCC2)cc1C(=O)Nc1nc(C)cc(C)n1,i
O=C(c1ccc(Cl)s1)N(Cc1ccoc1)Cc1cccs1,i
Cc1ccccc1OCC(=O)Nc1ccc(N2CCOCC2)cc1,i
CCc1noc(-c2ccc(=O)n(CC(=O)Nc3ccccc3OC)c2)n1,i
CCOc1ccc(NC(=O)CSc2ncc(-c3cccc(Cl)c3)o2)cc1,i
NC(=O)Cc1csc(NC(=O)C2CSCCC(=O)N2)n1 (centres undefined),i
Cn1cccc1CN(Cc1cccs1)C(=O)CCSc1ccccc1,i

# Entries listed above shown as hits in GIRK2 act:
compound,GIRK2 act
Fc1ccc(-c2n[nH]c(=S)s2)cc1,+

# Next structures follow.
compound,GIRK2 act
Cn1cc(-c2ccco2)nc1CCNC(=O)c1ccc(F)cc1Cl,i
CN(CC(=O)Nc1ccc(S(C)(=O)=O)cc1)c1nc2ccccc2s1,i
O=C(NC1CC1)c1nnn(-c2ccc(NC(=O)C3CCCC3)cc2)n1,i
NC(=O)Cc1csc(NC(=O)CCc2cccc(Oc3ccc(F)cc3)c2)n1,i
COC(=O)C1CCN(S(=O)(=O)c2c[nH]c(=O)[nH]c2=O)CC1,i
O=C(CCCCCn1c(=S)[nH]c2cc3c(cc2c1=O)OCO3)N1CCC(Cc2ccccc2)CC1,i
Cn1nnnc1SCC(=O)N1CCN(C(=O)C2CC2c2cccs2)CC1 (centres undefined),i
Cc1cnc(C(=O)NCc2nc(-c3ccccc3)no2)cn1,i

# High-throughput results deposited in PubChem BioAssay by Vanderbilt University.
